Source: PubChem (National Center for Advancing Translational Sciences (NCATS))
ClpP mod: qHTS Assay for Activators of ClpP; Potency, µM (top dose mostly 57.5 µM), inactives show at the top dose activity change, negative = active; ATP-dependent Clp protease proteolytic subunit (Bacillus subtilis (strain 168)), P80244; actives 1.9% (n = 340,000); AID 651965, 2013; purified B. subtilis ClpP, FRET peptide cleavage, 20 min; active = well fitted falling curve with a large enough effect; inconclusive = small, poorly fitted or top-dose-only effect; inactive = no such curve, though single readings can be large or run the other way; further: the source files actives as falling curves though it sought activators and does not explain the sign; nearly all actives have a fitted effect of over 65% in size; many hits overshoot -100%
Target sequence (P80244 whole entry, looked up): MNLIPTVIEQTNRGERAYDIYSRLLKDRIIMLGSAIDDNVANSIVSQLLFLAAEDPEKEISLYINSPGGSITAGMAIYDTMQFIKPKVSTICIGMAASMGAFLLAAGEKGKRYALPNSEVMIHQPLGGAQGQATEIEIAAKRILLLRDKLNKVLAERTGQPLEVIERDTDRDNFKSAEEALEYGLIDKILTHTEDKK
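FRET quenching reversal measured ClpP activation: 10 microg/mL B. subtilis ClpP at pH 8 with the FRET-FV decapeptide, read at 430 nm after 320 nm excitation. The 20-min minus 0-min signal was scaled between DMSO/no-enzyme wells and ADEP (5.8 microM final).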
* hit, by the source's call; ? = inconclusive. Potency means the concentration at half of the fitted maximal effect. A portion of the library (hit frequency here may not be typical).

Structure | ClpP mod
O=[N+]([O-])c1ccccc1/C=C/c1ccnc2ccccc12 | -6.5%
Cc1cccc(-n2c(SCc3nc(-c4ccccc4C)no3)nnc2-c2ccccc2)c1 | 0.0%
CC(C)c1cc(C(=O)NCc2ccc(F)cc2)no1 | -1.2%
CCCCc1nn2c(=O)cc(COC(=O)c3ccccc3NC(=O)C(C)(C)C)nc2s1 | -17.3%
Cc1cc(F)ccc1NC(=O)Cn1c(=O)ccc2cc(S(=O)(=O)N3CCC(C)CC3)ccc21 | -5.6%
C/C=C/c1cccc(-c2nc(C(=O)NC3Cc4ccccc4C3)cc3c2[C@@H](CCO)N(C(C)=O)C3)c1 | -1.0%
Cc1c(C)c2cc3c(c(C)c2oc1=O)OCN(CCc1ccccc1)C3 | 4.4%
Cc1ccccc1NC(=O)CN1C(=O)CCn2nc(-c3cccn3C)cc21 | 0.7%
CCOCCc1nn2c(=O)cc(COC(=O)CNC(=O)c3ccc(F)cc3)nc2s1 | -3.0%
Cc1ccc(-c2ccc(CCC(=O)O)n2-c2cccc(C)c2C)cc1 | -28.5%
CCN(CC)C(=O)c1sc(NC(=O)C2c3ccccc3Oc3ccccc32)c(C(=O)OC(C)C)c1C | -23.4%
CCOc1ccc(-c2nc(CSCC(=O)N3CCN(c4ccc(F)cc4)CC3)c(C)o2)cc1 | 0.7%
COc1ccc(-n2nnc(-c3nc(-c4cccs4)no3)c2N)cc1OC | -2.0%
O=C(CN1C(=O)C2(SCC(=O)N2c2ccccc2)c2ccccc21)NCCc1ccccc1 (centres undefined) | 1.3%
COc1ccc(N(Cc2cccs2)C(=O)COc2ccc(C(C)C)cc2)cc1 | 1.2%
c1ccc(N2CCN(Cc3nnc(-c4ccc5c(c4)OCO5)o3)CC2)cc1 | -8.2%
CCc1cccc(C)c1NC(=O)C1CCN(S(=O)(=O)c2cccc3nonc23)CC1 | 2.8%
Cc1ccc(N2CC(NC(=O)C(=O)c3c[nH]c4ccccc34)CC2=O)cc1 (centres undefined) | -0.5%
COc1ccc(-c2nn3c(-c4ccc(OC)cc4)nnc3c3ccccc23)cc1 | -26.2%
Cc1ccc(CNC(=O)c2cc(-c3ccc(C)c(C)c3)nc3ccccc23)cc1 | -24.3%
Cn1c(=O)nc2n(-c3ccc(Br)cc3)c3cccc(Cl)c3cc-2c1=O | -2.5%
CCn1c(=NC(=O)c2ccc(S(=O)(=O)N3CCCCC3)cc2)sc2cccc(OC)c21 | ?
Cn1c(C(=O)Nc2ccc(OC(F)(F)F)cc2)cc2c(=O)n3ccccc3nc21 | ?
CCOC(=O)CSc1nc(-c2ccc(C)cc2C)cc(-c2ccccc2)c1C#N | -7.3%
COc1ccc(S(=O)(=O)c2cn(C)c3cc(N4CCCC4)c(F)cc3c2=O)cc1 | ?
CCc1ccccc1Nc1nn2c(=O)c3ccc(C(=O)NCc4ccccc4Cl)cc3nc2s1 | ?
COc1cccc(-n2c(SCc3ccccc3C)nc3c([nH]c4ccccc43)c2=O)c1 | -17.3%
CCc1ccccc1NC(=O)CSc1ncc(S(=O)(=O)c2ccccc2)c(N)n1 | -1.6%
CC(=O)N1c2ccc(S(=O)(=O)NCC3CCC(C(=O)Nc4cccc(F)c4)CC3)cc2CC1C (centres undefined) | -0.2%
C=CCc1cccc2cc(C(=O)NCCc3c(C)[nH]c4c(C)cccc34)c(=O)oc12 | 4.7%
O=C(COc1ccccc1)NCCc1csc(-c2ccc(F)cc2)n1 | -7.3%
Cc1nc(N2CCCC2)c2c(C(=O)N3CCN(c4ccccc4)CC3)c(C)oc2n1 | 0.0%

Random excerpt: six records from the list
Structure | ClpP mod
CC(=O)N1c2ccc(S(=O)(=O)NCC3CCC(C(=O)Nc4cccc(F)c4)CC3)cc2CC1C (centres undefined) | -0.2%
COc1ccc(S(=O)(=O)c2cn(C)c3cc(N4CCCC4)c(F)cc3c2=O)cc1 | ?
CCc1ccccc1NC(=O)CSc1ncc(S(=O)(=O)c2ccccc2)c(N)n1 | -1.6%
O=[N+]([O-])c1ccccc1/C=C/c1ccnc2ccccc12 | -6.5%
CCc1ccccc1Nc1nn2c(=O)c3ccc(C(=O)NCc4ccccc4Cl)cc3nc2s1 | ?
C=CCc1cccc2cc(C(=O)NCCc3c(C)[nH]c4c(C)cccc34)c(=O)oc12 | 4.7%

(next part)
Structure | ClpP mod
CCCCNc1nc2c(S(=O)(=O)c3ccc(C)c(C)c3)nnn2c2ccsc12 | 28.2µM*
COC(=O)[C@]12CCCCC=C1N(Cc1ccc(Cl)cc1Cl)C(=O)[C@H](CC(=O)NCCc1ccccc1OC)C2 | -2.2%
O=C(NCCc1csc2nc(-c3cccc(F)c3)nn12)c1ccc(Br)o1 | 0.0%
Cc1ccc(C)c(NC(=O)CCCn2nc(C)c3sc4ccccc4c3c2=O)c1 | -1.9%
O=C1NC[C@@H](CCCCN2C[C@H](Cc3ccc(O)cc3)N(CCc3ccccc3)C(=O)C2=O)N(Cc2ccccc2)C1=O | 0.6%
COc1ccc(CNC(=O)c2cc3cccc4c3n2CC(C)S4)cc1OC (centres undefined) | 31.6µM*
CCOc1ccccc1NC(=O)Cn1c(=O)n(CCC(=O)NCc2ccc3c(c2)OCO3)c(=O)c2ccccc21 | -0.1%
CCOC(=O)c1cc2cc(OC)ccc2n1C1CCN(CCc2ccccc2)CC1 | 4.5%
CCc1ccc2c(c1)-c1ccccc1S(=O)(=O)N2CC(=O)N1CCCCC1 | -3.8%
O=C1NC[C@H](CCCCN2C[C@H](Cc3ccccc3)N(CC3CCCCC3)C(=O)C2=O)N(CCc2ccccc2)C1=O | -0.8%
CCOc1cccc(CC(=O)N2CCc3c([nH]c4ccccc34)C2c2ccccc2)c1OCC (centres undefined) | -4.7%
Cc1ccc(S(=O)(=O)CC(=O)Nc2sc3c(c2C#N)CCCC3)cc1 | -0.8%
CCOc1ccc(NC(=O)CSc2nnc(-c3ccc(OCC)cc3)o2)cc1 | 6.2%
Cc1ccn2c(Nc3ccc(F)cc3)c(-c3ccc(C)o3)nc2c1 | -14.7%
CCCOc1cccc(C2c3c(oc4ccc(F)cc4c3=O)C(=O)N2CCc2ccc(OC)cc2)c1 (centres undefined) | -0.8%
Cc1c(-c2nsc(NC(=O)c3ccccc3)n2)nnn1-c1ccc(C(F)(F)F)c(Cl)c1 | -1.8%
CCc1ccc(NC(=O)c2ccc3c(O)c(S(=O)(=O)c4ccc(Cl)cc4)c(=O)[nH]c3c2)cc1 | -10.8%
Cc1ccc(S(=O)(=O)c2cn(C)c3cc(N4CCCCC4)c(F)cc3c2=O)cc1 | ?
O=C(OCc1ccccc1Cl)c1ccc(-c2nnn(Cc3ccccc3Cl)n2)cc1 | 0.1%
Cc1ccc(C)c(CSc2nc(-c3ccccc3F)nc3c2Cc2c(CO)cnc(C)c2O3)c1 | 1.2%
COc1ccccc1CN(Cc1c(Cl)cccc1Cl)S(=O)(=O)c1ccc(Br)cc1 | 1.1%
O=C(NCCc1ccccc1)C1C(=O)Nc2ccccc2C(=O)N1C1CCCCC1 (centres undefined) | -1.5%
CCC(C)NC(=O)Cn1c(=O)cc(-c2ccccc2)c2c(C)nn(C)c21 (centres undefined) | 4.1%
COc1ccccc1OCCn1c(NC(=O)c2ccccc2Cl)nc2ccccc21 | ?
CC(C)CC(=O)Nc1nnc(S(=O)(=O)N(C)Cc2ccc(Cl)cc2)s1 | 0.6%
CCOc1ccccc1NC(=O)Cn1c(=O)ccc2cc(S(=O)(=O)N3CCC(C)CC3)ccc21 | -13.8%
Cc1cccc(NC(=O)C(Cc2ccccc2)N2Cc3ccccc3C2=O)c1C (centres undefined) | -0.3%
CC1CCN(c2ncnc3c2cnn3-c2ccc(F)cc2)CC1 | -22.3%
CCOC(=O)[C@]12CCC=C1N(Cc1ccco1)C(=O)[C@H](CC(=O)N1CCCCC1)C2 | -0.8%
Cc1cc(C)cc(NC(=O)CCCN2C(=O)COc3ccc(C)cc32)c1 | -3.3%
CCCCC[C@H](C)N1C[C@@H](COCc2ccccc2)Oc2cc(N3CCC[C@H]3C(N)=O)ccc2S1(=O)=O | -8.5%
Cc1ccc(Cn2ccnc2SCC(=O)Nc2nc3ccccc3s2)cc1 | -4.9%
CCOC(=O)C1=C(CN2CCN(c3cccc(Cl)c3)CC2)NC(=O)NC1c1ccc(Cl)cc1 (centres undefined) | -3.0%
Cc1ccc(Cl)cc1Nc1nn2c(=O)c3ccc(C(=O)NCc4ccc(F)cc4)cc3nc2s1 | 11.0%
CCc1ccc(NC(=O)c2cc(C(C)=O)n3ccccc23)cc1 | -12.4%
Cc1c(Cl)cccc1N1CCn2c1nc1c2c(=O)n(CC(=O)O)c(=O)n1C | -0.9%
CC(C)N(c1ccc(C=O)cc1)C(C)C | -1.7%
CCOC(=O)[C@]12CCC=C1N(CCC1=CCCCC1)C(=O)[C@H](CC(=O)NCc1ccccc1)C2 | 0.8%
O=C1N2CCCCC1(c1ccccc1)CCCC2 | -1.2%
O=C(NCCCc1nc2ccccc2n1Cc1cccc(Cl)c1)c1ccco1 | -0.3%

A few values from above:
`CCc1ccc(NC(=O)c2cc(C(C)=O)n3ccccc23)cc1` in ClpP mod is listed with -12.4%
`CC(C)N(c1ccc(C=O)cc1)C(C)C` in ClpP mod is listed with -1.7%

(next part)
Structure | ClpP mod
COC(=O)c1ccc2c(=O)n(CCCCCC(=O)NCCc3ccccc3)c(=O)[nH]c2c1 | 0.8%
CCOc1cccc(C(=O)N(Cc2ccc(F)cc2)Cc2ccco2)c1 | -3.2%
CCOc1ccc(C2=NC(c3ccncc3)=Nc3ccc(C)cc3N2)cc1OCC | -1.2%
COc1ccccc1CNC(=O)CCCn1c(=O)c2ccccc2n(Cc2ccccc2F)c1=O | -5.1%
CCn1nnc2cc(C(=O)Nc3ccc(C)c(Cl)c3)ccc21 | -3.8%
O=C(NC1CCCCC1)c1ccc2c(c1)N(Cc1ccc(F)cc1)C(=O)c1ccccc1S2(=O)=O | -6.9%
CCOc1ccc(-n2c(SCc3ccc(C(=O)OC)o3)nc3c([nH]c4ccccc43)c2=O)cc1 | -9.7%
O=C(Cn1ncc2c3ccccc3n(Cc3cccc(Cl)c3)c2c1=O)NCCCN1CCCCC1 | -5.9%
CCN(CCCNC(=O)CN1N=C(c2ccccc2)CCC1=O)c1ccccc1 | -0.6%
COc1ccccc1CNS(=O)(=O)c1ccc2c(c1)CC(C)N2C(C)=O (centres undefined) | -2.5%
CC(C)c1ccc(NS(=O)(=O)c2ccc3[nH]cc(C(=O)N4CCCC4)c(=O)c3c2)cc1 | ?
CCC(=O)N1CCc2cc(Br)cc(S(=O)(=O)N3CCC(C(=O)Nc4cccc(C)c4)CC3)c21 | -3.5%
O=C(Nc1c(-c2ccccc2)[nH][nH]c1=O)c1cccs1 | -1.9%
CC(Oc1ccccc1F)C(=O)Nc1ccc(-c2nc3ccccc3s2)cc1 (centres undefined) | 3.16µM*
O=C(Cc1ccccc1)NC1CC(=O)N(c2ccc3c(c2)OCCO3)C1 (centres undefined) | 2.2%
Cc1cccc(CCNC(=O)c2cc3ccccn3n2)c1 | -27.4%
CC(C)NC(=O)N1Cc2cc(C(=O)NC3CCCC3)nc(-c3cccc(-c4cccnc4)c3)c2[C@H]1CCO | -0.7%
COc1ccc(-c2c(C#N)c(SCC(=O)Nc3cccc(Cl)c3)nc(C)c2C(=O)Nc2ccccc2)cc1OC | 3.8%
COc1cccc2c1cc1c(=O)n(CC(=O)NCc3ccco3)nc(C)n12 | 3.55µM*
COc1ccc(C)cc1-n1nnc(C(=O)Nc2cccc(SC)c2)c1C | -8.5%
COc1ccc(NC(=O)c2oc3ccccc3c2NC(=O)c2cc(C)cc(C)c2)c(OC)c1 | 3.9%
CCN(c1ccccc1)S(=O)(=O)c1ccc(-c2cc(C)no2)s1 | 1.4%
CCCCN(C)C(=O)CN1C(=O)CCn2nc(-c3cn(C)c4ccccc34)cc21 | -28.9%
CCn1c(=O)c2cc(C(=O)NCCCN3CCN(c4ccc(F)cc4)CC3)sc2c2ccccc21 | -10.4%
CCOC(=O)c1ccccc1NC(=O)CSc1ccc(-c2cccs2)nn1 | 0.0%
CCCn1c(CCC(=O)Nc2ccccc2OC)nc2cccnc21 | -1.1%
CN(Cc1ccccc1)C(=O)C1CCN(S(=O)(=O)Cc2ccccc2)CC1 | -0.9%
COc1cc(C(=O)N(Cc2cccnc2)c2nc3cc(C)c(C)cc3s2)cc(OC)c1OC | -2.8%
CCOC(=O)c1ccc(NC(=O)c2noc3c2CCCC3)cc1 | 0.3%
Cc1nn(C)c2c1c(C(F)(F)F)cc(=O)n2CC(=O)NCc1ccc(OC(C)C)cc1 | -8.5%
CCOC(=O)[C@]12CCC=C1N(Cc1ccccc1)C(=O)[C@H](CC(=O)NCC1CCCCC1)C2 | -4.9%
Cc1ccc2ncc(C(=O)Nc3cccc(C(F)(F)F)c3)c(=O)n2c1 | -1.6%
CCOc1ccccc1CNC(=O)c1oc2c(c1C)-c1nn(Cc3cccc(Cl)c3)cc1CC2 | ?
Cc1ccc(CN2CCC(CNC(=O)Nc3cccc(Cl)c3C)C2)cc1 (centres undefined) | -3.6%
Cc1cccc(C(=O)NCC(=O)OCc2cc(=O)n3nc(C)sc3n2)c1 | -8.5%
COc1ccc(Cl)cc1S(=O)(=O)Nc1ccc2[nH]c(=O)[nH]c2c1 | -2.3%
COc1ccc(CNC(=O)CCS(=O)(=O)c2cc(Br)cc3c2N(C(=O)C2CC2)CC3)cc1 | 0.7%
COc1cccc(CNC(=O)c2cc(=O)[nH]c3ccc(S(=O)(=O)N4CCCCC4)cc23)c1 | -6.5%
